Screens (PubChem)
Ran importin = inhibitors of Ran–importin-beta complex formation, primary screen, biochemical, CFP-Ran/YFP-importin-beta FRET, RCC1, cell-free (AID 434961). 0.2% of 7,700 active. inhibition, %. CFP-Ran/YFP-importin-beta FRET, cell-free; hits give high values;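 active = more than half of the replicate wells above 15% inhibition; inconclusive = exactly half above it; inactive = fewer than half above it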;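 also: 0% = DMSO wells and 100% inhibition = RanGDP control wells on each plate; stock of unstated strength diluted about 400-fold; mean of two wells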
* marks the source's active call; other numbers are inactive results; u = inconclusive. Some of the compounds tested; the hit share may differ from the screen's.

SMILES | Ran importin
CC(C)NC(=O)N(C)C[C@@H]1OCCCC[C@@H](C)Oc2ccc(NC(=O)Nc3ccc4c(c3)OCO4)cc2C(=O)N([C@@H](C)CO)C[C@H]1C | 2.9
C[C@H](CO)N1C[C@H](C)[C@H](CN(C)C(=O)CCCN(C)C)OCc2cn(nn2)CCCC1=O | 4.0
Cc1noc(C)c1NC(=O)Nc1ccc2c(c1)CC(=O)N([C@@H](C)CO)C[C@H](C)[C@H](CN(C)Cc1ccncc1)O2 | -0.6
Cc1noc(C)c1NC(=O)Nc1cccc2c1O[C@H](CN(C)Cc1ccc(Cl)c(Cl)c1)[C@H](C)CN([C@H](C)CO)C2=O | -2.2
Cc1noc(C)c1S(=O)(=O)Nc1ccc2c(c1)CC(=O)N([C@@H](C)CO)C[C@@H](C)[C@H](CN(C)C)O2 | -4.5
C[C@@H]1CCCCO[C@@H](CN(C)Cc2ccccc2)[C@@H](C)CN([C@H](C)CO)C(=O)c2cc(N(C)C)ccc2O1 | -4.1
C[C@@H]1CN([C@H](C)CO)C(=O)c2cc(NC(=O)c3ccncc3)ccc2O[C@@H](C)CCCCO[C@@H]1CN(C)C(=O)Cc1ccccc1 | 5.3
CNC[C@H]1OCCCC[C@@H](C)Oc2ccc(NC(=O)C3CCCCC3)cc2C(=O)N([C@H](C)CO)C[C@@H]1C | -2.2
C[C@@H]1CN([C@H](C)CO)C(=O)c2cccc(NS(=O)(=O)c3cccs3)c2O[C@H]1CN(C)C(=O)Nc1ccc(C(F)(F)F)cc1 | 0.4
C[C@@H]1CN([C@H](C)CO)C(=O)c2cccc(NC(=O)Nc3ccc(C(F)(F)F)cc3)c2O[C@@H]1CN(C)C(=O)Nc1ccc(F)cc1 | 4.9
Cc1noc(C)c1NC(=O)N(C)C[C@@H]1OCCCC[C@@H](C)Oc2ccc(NS(C)(=O)=O)cc2C(=O)N([C@@H](C)CO)C[C@H]1C | 0.2
C[C@H](CO)N1C[C@H](C)[C@H](CN(C)C(=O)Nc2ccc3c(c2)OCO3)Oc2ccc(NS(=O)(=O)c3cccs3)cc2CC1=O | 3.4
C[C@@H]1CN([C@H](C)CO)C(=O)c2cc(NC(=O)C3CC3)ccc2O[C@@H]1CN(C)S(=O)(=O)c1cn(C)cn1 | 0.0
COc1ccc(-c2cnc3c(c2)C(=O)N([C@H](C)CO)C[C@H](C)[C@H](CN(C)C(=O)NC2CCCC2)O3)cc1 | -5.4
Cc1noc(C)c1NC(=O)N(C)C[C@H]1OCCCC[C@@H](C)Oc2ccc(NS(C)(=O)=O)cc2C(=O)N([C@H](C)CO)C[C@H]1C | -2.8
C[C@@H]1CCCCO[C@@H](CN(C)C(=O)c2ccncc2)[C@H](C)CN([C@@H](C)CO)C(=O)c2cc(NC(=O)Cc3ccccc3)ccc2O1 | 1.2
C[C@@H]1CN([C@@H](C)CO)C(=O)Cc2cc(NC(=O)Cc3ccccc3)ccc2O[C@@H]1CN(C)Cc1ccc(C(=O)O)cc1 | -2.2
C[C@H]1CN([C@@H](C)CO)C(=O)Cc2cc(NS(=O)(=O)c3cccs3)ccc2O[C@@H]1CN(C)CC1CC1 | 2.4
C[C@@H]1CCCCO[C@H](CN(C)C(=O)Nc2ccccc2)[C@H](C)CN([C@H](C)CO)C(=O)c2cc(NC(=O)CCC(F)(F)F)ccc2O1 | -5.5
C[C@@H]1CCCCO[C@@H](CN(C)S(=O)(=O)c2cn(C)cn2)[C@H](C)CN([C@@H](C)CO)C(=O)c2cc(NS(=O)(=O)c3cn(C)cn3)ccc2O1 | u
CNC[C@H]1Oc2c(NS(=O)(=O)c3ccc(Cl)cc3)cccc2C(=O)N([C@H](C)CO)C[C@H]1C | -0.8
C[C@@H]1CCCCO[C@@H](CN(C)C)[C@@H](C)CN([C@@H](C)CO)C(=O)c2cc(NS(=O)(=O)c3cccs3)ccc2O1 | -3.1
C[C@@H]1CN([C@H](C)CO)C(=O)c2cc(NC(=O)CCC(F)(F)F)ccc2O[C@@H](C)CCCCO[C@@H]1CN(C)C | 8.4
Cc1noc(C)c1NC(=O)Nc1ccc2c(c1)C(=O)N([C@H](C)CO)C[C@H](C)[C@H](CN(C)C(=O)C1CCCCC1)OCCCC[C@H](C)O2 | 5.2
Cc1noc(C)c1S(=O)(=O)Nc1ccc2c(c1)CC(=O)N([C@H](C)CO)C[C@@H](C)[C@@H](CN(C)C(=O)NC(C)C)O2 | -4.9
C[C@@H]1CN([C@@H](C)CO)C(=O)Cc2cc(NC(=O)Cc3ccccc3)ccc2O[C@H]1CN(C)Cc1ccc(C(=O)O)cc1 | -0.4
C[C@@H]1CN([C@H](C)CO)C(=O)c2cc(NS(=O)(=O)c3ccccc3)ccc2O[C@H]1CN(C)C(=O)NC1CCCCC1 | 1.8
CC(C)NC(=O)N(C)C[C@H]1OCCCC[C@@H](C)Oc2ccc(NC(=O)Nc3cccc4ccccc34)cc2C(=O)N([C@@H](C)CO)C[C@H]1C | -0.7
C[C@@H]1CN([C@H](C)CO)C(=O)Cc2cc(N(C)C)ccc2O[C@H]1CN(C)S(=O)(=O)c1cccs1 | -1.7
CC(C)NC(=O)Nc1ccc2c(c1)C(=O)N([C@@H](C)CO)C[C@H](C)[C@H](CN(C)Cc1ccccc1)OCCCC[C@@H](C)O2 | 1.2

Given with the structure last: part of the list above.
Ran importin	smiles
-0.8	CNC[C@H]1Oc2c(NS(=O)(=O)c3ccc(Cl)cc3)cccc2C(=O)N([C@H](C)CO)C[C@H]1C
-3.1	C[C@@H]1CCCCO[C@@H](CN(C)C)[C@@H](C)CN([C@@H](C)CO)C(=O)c2cc(NS(=O)(=O)c3cccs3)ccc2O1

Further entries
SMILES | Ran importin
CC(C)NC(=O)Nc1ccc2c(c1)C(=O)N([C@H](C)CO)C[C@@H](C)[C@H](CN(C)C)OCCCC[C@@H](C)O2 | -0.1
C[C@@H]1CN([C@@H](C)CO)C(=O)CCCn2cc(nn2)CO[C@@H]1CN(C)C(=O)c1ccccc1 | -1.0
C[C@@H]1CN([C@H](C)CO)C(=O)Cc2cc(NC(=O)C3CC3)ccc2O[C@H]1CN(C)C(=O)Nc1cccc2ccccc12 | 1.7
Cc1noc(C)c1NC(=O)Nc1ccc2c(c1)CC(=O)N([C@H](C)CO)C[C@H](C)[C@H](CN(C)C)O2 | -7.1
C[C@H]1CN([C@@H](C)CO)C(=O)CCCn2cc(nn2)CO[C@@H]1CN(C)S(=O)(=O)c1cccs1 | u
Cc1noc(C)c1S(=O)(=O)Nc1ccc2c(c1)C(=O)N([C@@H](C)CO)C[C@H](C)[C@H](CN(C)C)OCCCC[C@@H](C)O2 | 2.2
C[C@H]1CN([C@@H](C)CO)C(=O)c2cc(NC(=O)C3CC3)ccc2O[C@H]1CN(C)Cc1ccc(C(F)(F)F)cc1 | -1.5
C[C@@H]1CN([C@@H](C)CO)C(=O)c2cccc(NS(=O)(=O)c3ccc(Cl)cc3)c2O[C@@H]1CN(C)Cc1ccc(C(=O)O)cc1 | -3.9
C[C@H]1CN([C@@H](C)CO)C(=O)Cc2cc(NC(=O)Cn3cnnn3)ccc2O[C@@H]1CN(C)C(=O)Nc1cccc2ccccc12 | 1.0
C[C@H]1CN([C@@H](C)CO)C(=O)CCCn2cc(nn2)CO[C@H]1CN(C)S(=O)(=O)c1ccc(Oc2ccccc2)cc1 | 9.8
C[C@@H]1CN([C@H](C)CO)C(=O)c2cc(NC(=O)Nc3ccc(C(F)(F)F)cc3)ccc2O[C@H]1CN(C)C | -2.1
C[C@@H]1CN([C@H](C)CO)C(=O)c2cc(NS(C)(=O)=O)ccc2O[C@@H](C)CCCCO[C@H]1CN(C)S(=O)(=O)c1cn(C)cn1 | -4.2
COc1ccc(CN(C)C[C@H]2Oc3c(NS(=O)(=O)c4ccc(Cl)cc4)cccc3C(=O)N([C@H](C)CO)C[C@H]2C)cc1 | -4.0
C[C@H](CO)N1C[C@H](C)[C@@H](CN(C)C(=O)NC2CCCCC2)Oc2ccc(NC(=O)Cn3cnnn3)cc2C1=O | 5.0
Cc1noc(C)c1S(=O)(=O)Nc1ccc2c(c1)C(=O)N([C@@H](C)CO)C[C@@H](C)[C@H](CN(C)C(=O)Nc1ccc3c(c1)OCO3)O2 | -3.9
Cc1noc(C)c1S(=O)(=O)Nc1ccc2c(c1)C(=O)N([C@@H](C)CO)C[C@H](C)[C@H](CN(C)C(=O)NC1CCCCC1)O2 | -4.8
Cc1noc(C)c1S(=O)(=O)Nc1ccc2c(c1)CC(=O)N([C@H](C)CO)C[C@@H](C)[C@H](CN(C)S(=O)(=O)c1ccccc1)O2 | -1.1
C[C@@H]1CN([C@H](C)CO)C(=O)CCCn2cc(nn2)CO[C@H]1CN(C)S(=O)(=O)c1ccc(-n2cccn2)cc1 | -2.6
C[C@@H]1CN([C@H](C)CO)C(=O)c2cc(N(C)C)ccc2O[C@@H](C)CCCCO[C@H]1CN(C)C(=O)CCC(F)(F)F | -1.4
C[C@H]1CN([C@@H](C)CO)C(=O)Cc2cc(NC(=O)C3CC3)ccc2O[C@@H]1CN(C)C(=O)Nc1ccccc1 | -14.8
C[C@@H]1CCCCO[C@@H](CN(C)C(=O)CCC(F)(F)F)[C@H](C)CN([C@@H](C)CO)C(=O)c2cc(NS(C)(=O)=O)ccc2O1 | -7.7
C[C@H](CO)N1C[C@H](C)[C@@H](CN(C)Cc2ccc(Oc3ccccc3)cc2)Oc2c(NS(C)(=O)=O)cccc2C1=O | -1.7
C[C@@H]1CCCCO[C@H](CN(C)Cc2ccccc2)[C@@H](C)CN([C@H](C)CO)C(=O)c2cc(NC(=O)CCC(F)(F)F)ccc2O1 | 5.0
C[C@H]1CN([C@@H](C)CO)C(=O)Cc2cc(NS(=O)(=O)c3ccccc3)ccc2O[C@@H]1CN(C)C(=O)Nc1ccc2c(c1)OCO2 | -5.7
COc1ccc(S(=O)(=O)Nc2ccc3c(c2)CC(=O)N([C@@H](C)CO)C[C@H](C)[C@@H](CN(C)C)O3)cc1 | 7.0
C[C@@H]1CN([C@@H](C)CO)C(=O)CCCn2nncc2CO[C@@H]1CN(C)Cc1ccc(C(F)(F)F)cc1 | 2.3
C[C@@H]1CN([C@H](C)CO)C(=O)c2cc(N(C)C)ccc2O[C@@H](C)CCCCO[C@H]1CN(C)S(=O)(=O)c1cccs1 | 0.2
C[C@@H]1CN([C@@H](C)CO)C(=O)c2cccc(NS(=O)(=O)c3cn(C)cn3)c2O[C@@H]1CN(C)S(=O)(=O)c1cn(C)cn1 | 1.7
C[C@@H]1CN([C@H](C)CO)C(=O)Cc2cc(NC(=O)CCN3CCOCC3)ccc2O[C@@H]1CN(C)Cc1ccncc1 | 0.9
C[C@@H]1CN([C@@H](C)CO)C(=O)c2cccc(NS(=O)(=O)c3cccs3)c2O[C@@H]1CN(C)Cc1ccc(-c2ccccc2)cc1 | 1.9
C[C@@H]1CCCCO[C@@H](CN(C)Cc2ccccc2)[C@H](C)CN([C@H](C)CO)C(=O)c2cc(NS(=O)(=O)c3ccccc3)ccc2O1 | -2.5
CNC[C@H]1Oc2ccc(NC(=O)Cc3ccccc3)cc2CC(=O)N([C@H](C)CO)C[C@@H]1C | -0.6
C[C@H](CO)N1C[C@H](C)[C@H](CN(C)C)Oc2ccc(NC(=O)Nc3ccc(F)cc3)cc2CC1=O | 6.3
Cc1noc(C)c1S(=O)(=O)Nc1ccc2c(c1)C(=O)N([C@H](C)CO)C[C@@H](C)[C@@H](CN(C)C(=O)Nc1ccccc1)O2 | 0.5
C[C@H](CO)N1C[C@H](C)[C@H](CN(C)C(=O)Nc2ccccc2)Oc2c(NC(=O)c3ccncc3)cccc2C1=O | 3.0
C[C@@H]1CN([C@@H](C)CO)C(=O)c2cc(NC(=O)CCC(F)(F)F)ccc2O[C@@H](C)CCCCO[C@@H]1CN(C)S(=O)(=O)c1ccccc1 | u
Cc1noc(C)c1S(=O)(=O)N(C)C[C@@H]1Oc2c(NC(=O)C3CCOCC3)cccc2C(=O)N([C@@H](C)CO)C[C@@H]1C | -4.4
C[C@@H]1CN([C@@H](C)CO)C(=O)CCCn2cc(nn2)CO[C@@H]1CN(C)C(=O)Nc1ccc2c(c1)OCO2 | 0.3
CNC[C@@H]1Oc2c(NC(=O)NC3CCCCC3)cccc2C(=O)N([C@H](C)CO)C[C@@H]1C | 3.2
C[C@@H]1CN([C@@H](C)CO)C(=O)c2cc(NS(=O)(=O)c3cn(C)cn3)ccc2O[C@@H]1CN(C)C(=O)Nc1ccc2c(c1)OCO2 | 6.1
C[C@H]1CCCCO[C@@H](CN(C)C(=O)CCCN(C)C)[C@@H](C)CN([C@@H](C)CO)C(=O)c2cc(NS(C)(=O)=O)ccc2O1 | 7.8
COc1ccc(CN(C)C[C@@H]2Oc3ccc(NC(=O)Nc4c(C)noc4C)cc3CC(=O)N([C@@H](C)CO)C[C@H]2C)cc1 | 6.9
C[C@@H]1CN([C@H](C)CO)C(=O)c2cccc(NC(=O)Nc3cccc4ccccc34)c2O[C@H]1CN(C)S(=O)(=O)c1cn(C)cn1 | 1.1

A draw from above in order of count of non-hydrogen atoms, largest number first:
SMILES | Ran importin
C[C@@H]1CN([C@H](C)CO)C(=O)c2cccc(NC(=O)Nc3cccc4ccccc34)c2O[C@H]1CN(C)S(=O)(=O)c1cn(C)cn1 | 1.1
COc1ccc(CN(C)C[C@@H]2Oc3ccc(NC(=O)Nc4c(C)noc4C)cc3CC(=O)N([C@@H](C)CO)C[C@H]2C)cc1 | 6.9
Cc1noc(C)c1S(=O)(=O)Nc1ccc2c(c1)C(=O)N([C@H](C)CO)C[C@@H](C)[C@@H](CN(C)C(=O)Nc1ccccc1)O2 | 0.5
C[C@H](CO)N1C[C@H](C)[C@H](CN(C)C(=O)Nc2ccccc2)Oc2c(NC(=O)c3ccncc3)cccc2C1=O | 3.0
C[C@@H]1CN([C@@H](C)CO)C(=O)CCCn2cc(nn2)CO[C@@H]1CN(C)C(=O)Nc1ccc2c(c1)OCO2 | 0.3
C[C@H](CO)N1C[C@H](C)[C@H](CN(C)C)Oc2ccc(NC(=O)Nc3ccc(F)cc3)cc2CC1=O | 6.3
CNC[C@@H]1Oc2c(NC(=O)NC3CCCCC3)cccc2C(=O)N([C@H](C)CO)C[C@@H]1C | 3.2
